Compound activity deposited in PubChem BioAssay by National Center for Advancing Translational Sciences (NCATS).
VACV Venus inh: qHTS for Stage-Specific Inhibitors of Vaccinia Orthopoxvirus: Venus Reporter Primary qHTS; Vaccinia virus Venus reporter expression, fluorescence; 0.46% of 330,000 active; Potency, µM (series often up to 36.5 µM), without a hit: top-dose activity change, negative = inhibition, usual class: inhibitors; active means well fitted inhibition curve with a large enough effect; inconclusive means small, poorly fitted or top-dose-only effect; inactive means no such curve, though single readings can be large or run the other way; tested in A549 cells; further: nearly all actives have a fitted effect of over 30% in size; inactives centre near -10
VACV mCherry inh: qHTS for Stage-Specific Inhibitors of Vaccinia Orthopoxvirus: mCherry Reporter Primary qHTS; Potency, µM (titrated, usually from 36.5 µM), without a hit: at the highest dose activity change, negative = inhibition, most hits filed as inhibitors; Vaccinia virus mCherry reporter infection, fluorescence; about a quarter of the inactives have no number; 0.63% of 310,000 active; active = well fitted inhibition curve with a large enough effect; inconclusive = small, poorly fitted or top-dose-only effect; inactive = no such curve, though single readings can be large or run the other way; tested in A549 cells; further: nearly all actives have a fitted effect of over 35% in size; inactives centre near -10
The depositor's hits bear a star; i = inactive; u = inconclusive; x = not tested or not shown; & = joins results of further samples; [ ] = another dose, or the depositor's remark. On the % scale 0 is the no-effect control and ±100 the full control effect; potency means the concentration at half of the fitted maximal effect.

SMILES	VACV Venus inh	VACV mCherry inh
COC(=O)CC1C(=O)NCCN1C(=S)Nc1cccc(C(F)(F)F)c1 (stereo unspecified)	-15%	i
CN(Cc1cn(Cc2ccccc2)nn1)C1CN(Cc2cn(Cc3ccccc3)nn2)S(=O)(=O)C1 (stereo unspecified)	0%	-1%
FC(F)(F)c1ccc(N2CCN(c3ncnc4c3nnn4Cc3ccccc3)CC2)nc1	-10%	-1%
CCN(CC)CCCNC(=O)CSc1c2c(nc3cc(Cl)ccc13)CCCC2	u	-13%&1%
O=C(COC(=O)c1cc(S(=O)(=O)N2CCCC2)ccc1O)NCc1ccccc1	-12%	-5%
COc1c(C=C2C(=O)NC(=O)NC2=O)c(CCN(C)C(=O)c2ccccc2)cc2c1OCO2	-5%	-6%
Cc1cc(C)c(C)c(OCCCN(C)C)c1	-5%	i
Cc1cc(NC(=O)CCCN2C(=O)c3cccc4cccc(c34)C2=O)no1	-14%	-11%
CC(C)N1C(=O)C(Cc2nc3ccccc3c(=O)n2-c2ccccc2)c2ccccc21 (stereo unspecified)	-17%	-28%
COc1ccc(NC(=O)CSC2=Nc3ccccc3C3=NC(CC(=O)NCc4ccc5c(c4)OCO5)C(=O)N23)cc1 (stereo unspecified)	-6%	-3%
CC(CCc1ccccc1)NC(=O)c1ccc(NC(=O)c2ccccc2)cc1 (stereo unspecified)	u	-6%
O=C(Nc1ccc(-c2nc3ccccc3[nH]2)cc1)c1ccc2c(c1)OCO2	u	-9%
O=C(CNc1n[nH]c(=O)[nH]c1=O)N/N=C/C1CC=CCC1 (stereo unspecified)	-3%	u
COc1ccc(OCc2cc(-c3ccc(Cl)cc3)no2)cc1	-11%	-2%
CC1(C(=O)NS(=O)(=O)c2cccc(Cl)c2)CCN1C(=O)C/C=C/c1ccccc1 (stereo unspecified)	-29%	i
CCOc1ccc(C(=O)Nc2c3c(nn2-c2cccc(C)c2C)CS(=O)C3)cc1 (stereo unspecified)	-5%	i
CC(=O)NC(CCS(C)(=O)=O)C(=O)Nc1cc(C)on1 (stereo unspecified)	-10%	i
CCOc1ccc(C2C(C(N)=O)=C(C)Nc3nc(SCc4ccccc4)nn32)cc1 (stereo unspecified)	-2%	-4%
N#Cc1ccccc1S(=O)c1ccccc1C(=O)Nc1ccccc1 (stereo unspecified)	-19%	-15%
O=C(Nc1csc([N+](=O)[O-])c1)Nc1ccccc1Cl	0%[7.34 µM]	i[7.34 µM]
COCCOC1CCN(C(=O)C2CCC(=O)N(CCc3ccccc3)C2)CC1 (stereo unspecified)	-9%	-7%
COc1cc(C(=O)NCC(=O)NC(C)CCc2ccccc2)cc(OC)c1OC (stereo unspecified)	-16%	i
Cc1ccc(C(=O)/C=C/c2ccccc2[N+](=O)[O-])cc1	-12%	-2%
COc1ccc(OCCOC(=O)c2[nH]c(C)c(C(C)=O)c2C)cc1	-18%	i
CCOc1ccc(NS(=O)(=O)c2ccc(C(=O)N(CC)CC(=O)NCc3cccs3)cc2)cc1	0%	-11%

Brought forward from above: 3 compounds, followed by the next part.
SMILES	VACV Venus inh	VACV mCherry inh
Cc1ccc(C(=O)/C=C/c2ccccc2[N+](=O)[O-])cc1	-12%	-2%
COc1ccc(OCCOC(=O)c2[nH]c(C)c(C(C)=O)c2C)cc1	-18%	i
CCOc1ccc(NS(=O)(=O)c2ccc(C(=O)N(CC)CC(=O)NCc3cccs3)cc2)cc1	0%	-11%
CCCCNc1ncnc2c1cnn2-c1ccccc1	u	x
CN1CCN(c2ccc([N+](=O)[O-])c(NCC3CCCO3)c2)CC1 (stereo unspecified)	-22%	u
COc1cccc2c1OC1(C)CC2NC(=O)N1c1cccc(C(=O)Nc2ccc3c(c2)OCCO3)c1 (stereo unspecified)	-19%	-5%
Cc1ccc(S(=O)(=O)NC(=O)NCc2ccc(F)cc2)cc1	-3%	0%
CC(C)COP(=O)(OCC(C)C)C(O)c1ccc(F)cc1 (stereo unspecified)	-7%	-17%
COc1cccc(-c2sc3ccc(OC)cc3c2-c2ccc(OC)cc2F)c1	-6%	-7%
CCN(CCn1cccn1)Cc1cn[nH]c1-c1ccc(OC)cc1F	-8%	-20%
CCOC(=O)c1c(C)[nH]c(C(=O)N2CCc3cc(OC)c(OC)cc3C2)c1C	-11%	-3%
Cc1csc[n+]1CCC1CCCCC1	-34%	-19%
O=C(NCC1CCCO1)C(=O)N/N=C/c1ccccc1C(=O)O (stereo unspecified)	-1%	-4%
COc1ccccc1C1=CC(=O)CC(C)(C)C1=O	-2%	i
CCCOc1ccccc1OCC(=O)N1CCN(CC(=O)N2CCOCC2)CC1	-16%	i
C=C1[C@@H](OC(C)=O)CC[C@]2(C)[C@@H]1C[C@@H]1C[C@H](OC(C)=O)C(C)=C([C@@H](OC(C)=O)[C@@H]2OC(C)=O)C1(C)C	-14%	-14%
CN(C)S(=O)(=O)c1cccc(C(=O)NCC(C)(C)CNC(=O)c2cccc(S(=O)(=O)N(C)C)c2)c1	-15%	-9%
COC(=O)C1=C(C)N(C)C(=O)NC1c1ccccc1 (stereo unspecified)	9%	x
Cn1c(Cn2c(=O)sc3ccccc32)nnc1SCC(=O)Nc1ccc2c(c1)OCO2	-6%	-9%
CCn1c(O)c(N=NC(=O)CNC(=O)c2cccnc2)c2ccccc21	-7%	i
COc1ccc(OC(=O)c2cc3cc(Cl)ccc3oc2=O)cc1	-7%	-16%
CCc1ccc([C@H]2[C@@H]3C(=O)C[C@@H]4C(=O)N(CC)C(=O)[C@@H]4[C@@H]3CN2S(=O)(=O)c2ccc(C)cc2)cc1	-1%	i
COc1ccc(OC)c(CCNC(=O)c2ccc(CS(=O)(=O)c3ccc(Br)cc3)o2)c1	-15%	i
COc1cccc(C2c3c(oc4ccccc4c3=O)C(=O)N2CCCN(C)C)c1OC (stereo unspecified)	-6%	x
CN(C(=O)Nc1ccc(F)cc1)[C@H]1C[C@H]2c3[nH]c4ccccc4c3CCN2C(=O)[C@H]1CO	-17%	-12%
Fc1ccc(-c2cc3nc(-c4ccccc4)cc(N4CCN(CCN5CCOCC5)CC4)n3n2)cc1	-13%	-26%
CN(CC(=O)Nc1ccc(F)c(F)c1F)C(=O)C1CCCO1 (stereo unspecified)	-18%	-6%
CCN1CCN(C(=O)C(=O)c2c(C)[nH]c3ccccc23)CC1	-7%	i

Part of the list above in order of count of non-hydrogen atoms, lowest first:
SMILES	VACV Venus inh	VACV mCherry inh
COC(=O)C1=C(C)N(C)C(=O)NC1c1ccccc1 (stereo unspecified)	9%	x
CC(C)COP(=O)(OCC(C)C)C(O)c1ccc(F)cc1 (stereo unspecified)	-7%	-17%
COc1ccc(OC(=O)c2cc3cc(Cl)ccc3oc2=O)cc1	-7%	-16%
CN(C)S(=O)(=O)c1cccc(C(=O)NCC(C)(C)CNC(=O)c2cccc(S(=O)(=O)N(C)C)c2)c1	-15%	-9%

Full records from above:
Results for CCN(CCn1cccn1)Cc1cn[nH]c1-c1ccc(OC)cc1F : VACV Venus inh = -8%; VACV mCherry inh = -20%
Results for COc1ccc(OC(=O)c2cc3cc(Cl)ccc3oc2=O)cc1 : VACV Venus inh = -7%; VACV mCherry inh = -16%
Results for COc1ccccc1C1=CC(=O)CC(C)(C)C1=O : VACV Venus inh = -2%; VACV mCherry inh = i

Other compounds.
SMILES	VACV Venus inh	VACV mCherry inh
CCN1CCN(C(=O)c2cc3cc([N+](=O)[O-])ccc3oc2=O)CC1	7%	i
Nn1c(-c2ccccc2Cl)nnc1-c1ccccc1Cl	7%	-5%
CCOC(=O)c1[nH]c2ccc(OC)cc2c1NC(=O)CN1CCC2(CC1)OCCO2	-7%	-13%
N#Cc1ccc(C(=O)CSc2n[nH]c(=O)n2-c2cccnc2)cc1	-16%	-18%
O=C1NC(=O)C(Cc2c[nH]c3ccccc23)N1 (stereo unspecified)	-11%	-5%
Cc1ccc(NC(=O)[C@H](Cc2ccccc2)N2Cc3ccccc3C2=O)cc1F	7%	4%
CC(=O)C1=CCC(c2ccccc2F)N(S(=O)(=O)c2ccc(C)cc2)C1 (stereo unspecified)	9%	29%
O=c1c(C(c2ccc(O)cc2)c2c(O)nc3n(c2=O)CCS3)c(O)nc2n1CCS2	-11%	x
COc1cccc(NC(=O)COc2ccccc2C(N)=O)c1	-24%	x
COC(=O)c1ccc(Cn2c(C)c(C(=O)NCc3ccc(C#N)cc3)sc2=O)o1	-10%	-22%
Cc1cccc2sc(N3CCN(C(=O)C4COc5ccccc5O4)CC3)nc12 (stereo unspecified)	-15%	-9%
COc1ccc(C(=O)Oc2ccc(/C=N/Nc3ccc(Cl)c(C(=O)O)c3)cc2OC)cc1	-7%	u
CN(C)c1ccc(/C=N/NC(=S)NCc2ccco2)cc1	-11%	-20%
COc1ccc2c(C)c(CCC(=O)NC3CC3)c(=O)oc2c1C	-14%	-4%
O=C(CSc1nc2ccccc2o1)N/N=C/c1ccccc1C(=O)O	-6%	-25%
Cc1c(CNCCc2ccc(S(N)(=O)=O)cc2)c(C(=O)O)c(C)n1Cc1ccc(Cl)cc1	1%	-12%
c1ccc(CSc2nnc(-c3ccccc3)c(-c3ccccc3)n2)cc1	-16%	i
CC(=O)C1=NOC(CNC(=O)c2c(-c3ccccc3Cl)noc2C)C1 (stereo unspecified)	-8%	x
c1ccc2c(CN3CCOCC3)c3ccccc3c(CN3CCOCC3)c2c1	-8%	2%
CN(C)c1ccc(C=C(C#N)C#N)cc1	-16%	i
Cc1nn(Cc2ccccc2)c(C)c1C=C1C(=O)NC(=S)NC1=O	-3%	i
Cc1ccc(C(=O)Cn2c(N3CCOCC3)nc3c2c(=O)n(C)c(=O)n3C)cc1	-13%	-15%
CCOC(=O)C1=C(C)C2C3C(=O)N(c4ccccc4C)C(=O)C3C1(C)C1C(=O)N(c3ccccc3C)C(=O)C21 (stereo unspecified)	-19%	i
COc1ccc(/C(O)=C2/C(=O)C(=O)N(CCCN3CCOCC3)C2c2ccc(Cl)cc2)cc1 (stereo unspecified)	-9%	i
CCn1nc(NC(=O)c2ccccc2)c2cc3cccc(C)c3nc21	0%[7.34 µM]	-1%[7.34 µM]

Next structures:
SMILES	VACV Venus inh	VACV mCherry inh
CCOC(=O)c1cc(-c2ccccc2)nn1CC1CC(c2cccnc2)=NO1 (stereo unspecified)	-6%	-4%
CCCn1c(NC(=O)CN2C(=O)NC3(CCCCC3)C2=O)nc2ccccc21	-14%	-11%
CC(C)(C)C(=O)N1CCN(c2ccc(NC(=O)c3ccc([N+](=O)[O-])o3)cc2)CC1	u	11µM*
Cn1cc(S(=O)(=O)N2CCCCCC2)cc1C(=O)NCc1ccccc1Cl	-12%	-16%
CCC(NC(=S)NCc1ccc(F)cc1)c1ccc(C)cc1 (stereo unspecified)	-8%	-24%
COc1cc(/C=C/c2sc3ccccc3[n+]2CCCS(=O)(=O)[O-])ccc1O	x	169%[activator]
O=C(Nc1cccc2c1CCCC2)c1cc([N+](=O)[O-])cc([N+](=O)[O-])c1	-10%	u
CCOC(=O)c1oc2cc(O)ccc2c(=O)c1-c1ccc(OC)cc1	-4%	-5%[1.46 µM]
COc1cccc(C2c3c(oc4ccccc4c3=O)C(=O)N2CCCN2CCOCC2)c1OC (stereo unspecified)	-11%	-2%
O=C(N/N=C/c1ccc(Cl)cc1)C(=O)N1CCCCCC1	-2%	-4%
CC/C(=C\C1CCCCC1)C(NP(=O)(c1ccccc1)c1ccccc1)c1ccccc1 (stereo unspecified)	u	-23%
CCOc1ccc(N(CC(=O)NC2CCCCC2)C(=O)CNC(=O)c2ccco2)cc1	-5%	-10%
CCC1Oc2ccc(C)cc2N(CC(=O)NCCN2C(C)CCCC2C)C1=O (stereo unspecified)	-13%	-4%
CCOc1ccc(CCNC(=O)CSc2cc(=O)n(C)c3ccccc23)cc1OCC	-10%&-23%	-12%&-12%
COc1cc(OC)c(C(=O)C=Cc2ccc(OC)c(OC)c2)c(OC)c1	u	10µM*
Cc1nc(-c2ccccc2)sc1CCNS(=O)(=O)c1ccccc1	1%	-10%
CCc1ccc(CN2CCC(Oc3ccc(C(=O)N4CCCC4)cc3)CC2)cc1	-22%	-10%
O=C(NCc1ccc2c(c1)OCO2)c1ccc(Cl)nc1	4%	1%
CCC(=O)N1CCc2cc(S(=O)(=O)CCC(=O)NCCc3ccc(S(N)(=O)=O)cc3)ccc21	6%[7.34 µM]	-6%[7.34 µM]
CCOc1ccc(S(=O)(=O)NCCC(=O)N(C)CC(=O)Nc2ccc(OC)cc2)cc1	-17%	-23%
FC(F)Oc1ccccc1NC(=S)NCCc1ccccc1	-4%[7.34 µM]	i[7.34 µM]
COc1ccc(Cl)cc1-c1nc(SCC(=O)N(C)CCC#N)n[nH]1	-16%	i
Cn1c2ccccc2c(=O)c2ccc(-c3ccc4c(c3)OCO4)cc21	-29%	i
Nc1nc2ccccc2cc1S(=O)(=O)c1ccccc1	-5%	-6%
COc1cc(OC)cc(C(=O)Nc2cc(-c3cn4cccnc4n3)ccc2C)c1	-8%	-3%
Cc1ccccc1CNC(=O)CN(c1cccc([N+](=O)[O-])c1)S(C)(=O)=O	-5%	-5%
CCN(CC)CC(=O)NCC1(c2ccccc2)CCCC1	-1%	-11%
CCOC(=O)N1CCc2c(sc(NC(=O)CN3CCN(C)CC3)c2C(=O)Nc2ccccc2)C1	2%	1%
CCCC(=O)N1CC2(C)CN(C(=O)CCC)CC(CCC)(C1)C2=O	6%	x

This is a random part of the collection; any-hit rate near 0.87%.
